# From PubChem
# Biofilm kill mix – mixture kills Candida albicans biofilm cells; 120,000 compounds, 0.02% hits; AID 1242; inhibition, % at 7.6 µM; C. albicans biofilm persisters + clotrimazole, fluorescence viability; primary screen in compound mixtures of four per well;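 active means inhibition above 30.3% in the primary screen of four-compound pools, then above 30% when the compound was retested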;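 further: compounds exposed to preformed 24 h biofilms for 48 h; the number belongs to the whole pool; some results filed as inactive read as strong as hits; inactives centre near 12; 0% = biofilm with clotrimazole alone and 100% = kill control; retested singly at about 60 µM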
#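 Test system: C. albicans biofilms. Buffer or medium: RPMI/MOPS medium, pH 7.0. Timing: 48 h compound exposure at 37 °C. Technique: Alamar Blue fluorescence. Evaluation: percent inhibition of biofilm viability.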
# The depositor's hits bear a star. A portion of the library. The share of hits here may be higher or lower than overall.
Structure	Biofilm kill mix
COc1ccc(-n2c(C)cc(C(=O)CN3C(=O)NC4(CCc5ccccc54)C3=O)c2C)cc1 (configuration not stated)	-7.3
O=[N+]([O-])c1cc(C(F)(F)F)ccc1NCCc1c[nH]c2ccccc12	-4.7
Cc1cc(C(F)F)nn1CC(=O)NC1C(=O)N2C(C(=O)O)=C(CSc3nnnn3C)CSC12 (configuration not stated)	8.6
COc1ccc(/C=C/C(=O)Nc2cc(S(=O)(=O)N3CCCCC3)ccc2N2CCCCC2)cc1OC	7.5
O=C(Nc1ccccc1)OC1CCCCc2cccnc21 (configuration not stated)	21.8
Cc1ccc(CN2CCN(Cc3ccc4ncccc4c3)CC2CCO)cc1 (configuration not stated)	-0.2
CCc1ccc(NC(=O)C(=O)NCc2ccccn2)cc1	6.2
NC(=O)C(Cc1ccccc1)N1C(=O)c2ccccc2C1=O (configuration not stated)	18.4
COc1ccccc1C(=O)N1CC2(C)CC1CC(C)(C)C2 (configuration not stated)	8.4
COC(=O)N/N=C(\C)c1ccco1	14.5
CN(C)S(=O)(=O)c1ccc(NC(=O)CN2CCC(Cc3ccccc3)CC2)cc1	-2.5
CC(C)N(CC#CC(O)(c1ccccc1)c1ccccc1)C(C)C	-0.9
CCOC(=O)c1sc2nc(N3CCOCC3)c3c(c2c1N)CC(C(C)C)OC3 (configuration not stated)	12.7
O=C(NCCc1ccncc1)Nc1ccc(Cl)c(Cl)c1	16.2
O=C(N/N=C/C(Br)=C/c1ccccc1)c1ccncc1	-0.9
COc1cc(NC(=O)COc2ccccc2[N+](=O)[O-])ccc1NC(=O)c1cccs1	30.8
CCCCNC(=O)/C(=C\c1ccc([N+](=O)[O-])o1)NC(=O)c1ccccc1	-1.4
CCN(CC)S(=O)(=O)c1ccc(N2CCCC2)c(NC(=O)Cc2ccc(OC)cc2)c1	-8.6
CC(=O)Nc1ccc(C2=NNC(=Nc3ccc(S(=O)(=O)N4CCOCC4)cc3)SC2)cc1	20.5
CC(C)CCN(C(=O)Cc1ccc(Cl)c(Cl)c1)c1c(N)n(Cc2ccccc2)c(=O)[nH]c1=O	5.0
O=C(Nc1cccc(-c2cn3c(n2)SCC3)c1)c1ccc(Br)o1	22.3
N#C/C(=C\c1cn(Cc2ccc(F)cc2)c2ccccc12)C(=O)NCc1ccco1	11.4
CCC1(CC)NC(=O)N(CC(=O)N2N=C(c3ccc(Cl)cc3)CC2c2ccco2)C1=O (configuration not stated)	-3.9
O=S(=O)(c1cccc2nonc12)N1CCN(c2ccccc2F)CC1	19.4

# 2 records drawn at random from those above:
Structure	Biofilm kill mix
O=C(N/N=C/C(Br)=C/c1ccccc1)c1ccncc1	-0.9
CCCCNC(=O)/C(=C\c1ccc([N+](=O)[O-])o1)NC(=O)c1ccccc1	-1.4

# Remaining list, next part:
Structure	Biofilm kill mix
Fc1cccc(-c2csc(-c3ccno3)n2)c1	20.1
CC(Sc1cccc(C(F)(F)F)c1)C(=O)NC(N)=O (configuration not stated)	13.5
Cc1ccc(CS(=O)(=O)c2ccc(C(=O)N3CCN(c4ccccn4)CC3)cc2[N+](=O)[O-])cc1	14.1
CCOC(=O)c1nc2ccccc2c(C)c1C	11.9
COc1ccc(NS(=O)(=O)c2cc(NC(=O)c3ccccc3F)ccc2N2CCCC2)cc1	8.6
CC1(C(=O)NC2CCCCC2)CCC(=O)N1Cc1ccc2c(c1)OCO2 (configuration not stated)	23.1
COc1ccc(S(=O)(=O)N2CCCC2C(=O)n2nc(C)cc2C)cc1 (configuration not stated)	-5.3
CCC(C)c1ccccc1NC(=O)COC(=O)C1=COCCO1 (configuration not stated)	13.8
CCc1cc2c(-c3ccccc3)cc(=O)oc2cc1OC(=O)c1cccs1	1.9
Cc1ccc2cc(C#N)c(N3CCCN(S(=O)(=O)c4ccc(F)cc4)CC3)nc2c1	7.1
Cc1nc2c3ccccc3[nH]c(=O)n2n1	19.1
CC1CCCCC1NC(=O)CN1CCC(O)(c2ccc3c(c2)OCO3)CC1 (configuration not stated)	43.5

# Next part (5 carried over from the part before).
Structure	Biofilm kill mix
CCC(C)c1ccccc1NC(=O)COC(=O)C1=COCCO1 (configuration not stated)	13.8
CCc1cc2c(-c3ccccc3)cc(=O)oc2cc1OC(=O)c1cccs1	1.9
Cc1ccc2cc(C#N)c(N3CCCN(S(=O)(=O)c4ccc(F)cc4)CC3)nc2c1	7.1
Cc1nc2c3ccccc3[nH]c(=O)n2n1	19.1
CC1CCCCC1NC(=O)CN1CCC(O)(c2ccc3c(c2)OCO3)CC1 (configuration not stated)	43.5
O=c1[nH]c(CSc2nnc(Nc3ccccc3)s2)nc2ccccc12	27.7
Cn1ccc(-c2ccccc2)n1	11.4
CCc1cccc2cc3c(N)c(C(=O)Nc4ccc(S(=O)(=O)N5CCCC5)cc4)sc3nc12	18.1
Fc1ccc(-n2c(-c3ccc4ccccc4n3)n[nH]c2=S)cc1	8.2
COC(=O)c1c(NC(=O)COC(=O)c2ccc(C)s2)sc2c1CCCCC2	12.3
Cc1cc(NC(=O)COc2cccc3cccnc23)no1	6.8
O=S(=O)(c1ccc2c(c1)CCCN2)N1CCCC2CCCCC21 (configuration not stated)	20.4
COc1cc(C)c2c(c1C=O)Oc1c(c(C)c(O)c3c1C(O)OC3=O)OC2=O (configuration not stated)	21.9
O=C(N/N=C/c1ccc(O)c([N+](=O)[O-])c1)C1CC1(c1ccccc1)c1ccccc1 (configuration not stated)	21.8
Cc1csc(NC(=O)CSCC(=O)O)c1-c1nc2ccccc2s1	18.6
CC(C)N1CCc2[nH]c(=S)[nH]c(=O)c2C1	21.5
Fc1ccc(NC(=S)NC2CC3CCC(C2)N3Cc2ccco2)cc1 (configuration not stated)	12.4
CC(=O)[C@H]1[C@H](C#N)C[C@H]2[C@@H]3CC=C4C[C@@H](O)CC[C@]4(C)[C@H]3CC[C@@]21C	18.6
Cc1noc(C)c1COc1ccc2ccc(=O)oc2c1	20.8
O=c1c2cnn(-c3ccccc3)c2nc(-c2cccs2)n1-c1cccc(Cl)c1	7.3
Cc1cccc(NC(=O)N2CCCC2C(=O)Nc2ccccc2)c1 (configuration not stated)	33.5
COc1ccc(C/C(N)=N/OC(C)=O)cc1OC	10.2
Cc1ccc2[nH]c(C(F)(F)F)cc(=O)c2c1	16.3
O=C(Nc1nnc(CCS(=O)(=O)c2ccc3ccccc3c2)s1)c1ccc([N+](=O)[O-])cc1	12.0
Oc1cccc(/C=N/Nc2nn3cnnc3c3ccccc23)c1	27.7
O=C1/C(=C/c2ccc(O)c([N+](=O)[O-])c2)SC(=S)N1Cc1ccccc1	17.3
N#C/C(=N\Nc1ccccc1F)C(=N)N1CCCCC1	13.4
O=C(CSc1ccc(-c2ccccn2)nn1)Nc1nccs1	9.5
Cc1ccc(/C=N/NC(=O)C(O)c2ccccc2)o1 (configuration not stated)	20.6

# Gathered by group: the entries above containing an aryl thioether with sulfur outside any ring
Structure	Biofilm kill mix
Cc1cc(C(F)F)nn1CC(=O)NC1C(=O)N2C(C(=O)O)=C(CSc3nnnn3C)CSC12 (configuration not stated)	8.6
CC(Sc1cccc(C(F)(F)F)c1)C(=O)NC(N)=O (configuration not stated)	13.5
O=c1[nH]c(CSc2nnc(Nc3ccccc3)s2)nc2ccccc12	27.7
O=C(CSc1ccc(-c2ccccn2)nn1)Nc1nccs1	9.5

# (continued)
Structure	Biofilm kill mix
CCN(C(=O)COC(=O)c1ccc2c(=O)n3c(nc2c1)CCC3)C1CCS(=O)(=O)C1 (configuration not stated)	12.7
O=C(NCc1nc2ccccc2[nH]1)c1cccc(S(=O)(=O)N2CCCCC2)c1	1.1
CN(c1ccccc1)c1nc(N)c([N+](=O)[O-])c(N2CCCCCC2)n1	8.4
Cc1ccccc1OCC(O)CN1CCN(c2ccccn2)CC1 (configuration not stated)	-0.2
C=CCC(CC=C)(NC(=O)c1cccc(C)c1)c1ccccc1	15.8
C=CCOc1nc(-c2ccccc2Cl)nc2ccccc12	15.5
Cc1ccc(Cn2c(=O)n(-c3ccccc3)c(=O)c3ccc(C(=O)NCc4ccco4)cc32)cc1	6.4
Cc1cc(/C=N/Nc2nc(N3CCOCC3)nc(N3CCOCC3)n2)c(C)n1-c1ccccc1	11.5
Cc1ccccc1Nc1c(-c2ccccn2)nc2c(C)cccn12	13.4
CC(C)CC(C(=O)O)N1C(=O)[C@@H]2[C@H](C1=O)[C@@H]1C[C@H]2C(Br)C1Br (some centres not stated)	14.1
O=S(=O)(c1ccc2nnn(O)c2c1)N1CCCCC1	5.1
CC(C)Nc1nc(NC(C)C)nc(N(C#N)CCOc2ccc(Cl)cc2Cl)n1	5.5
O=C(c1ccncc1)N(c1ccc2oc3c(c2c1)CCCC3)S(=O)(=O)c1ccc(F)cc1	10.8
Cc1ccc(N(C(=O)Cn2nnc(-c3ccccc3)n2)C(C(=O)NC2CCCCC2)c2ccccn2)cc1C (configuration not stated)	14.4
N#C/C(=C/c1cccc([N+](=O)[O-])c1)c1nnc2n1CCCCC2	14.9
Cc1cc(NC(=O)CSc2nnc(C3COc4ccccc4O3)n2C)no1 (configuration not stated)	6.7
O=C(Nc1ccccc1)C1CC(O)CN1S(=O)(=O)c1ccc([N+](=O)[O-])cc1 (configuration not stated)	20.0
Cc1cccc(NC(=S)NCC(C)CSc2ccc(Cl)cc2)c1 (configuration not stated)	7.5
COC(=O)c1sc(SC)nc1N	4.9
Cc1ccc2nc(/C(C#N)=C/c3ccc(-c4cccc([N+](=O)[O-])c4)o3)[nH]c2c1	0.4
CN1CCN(C(=O)C2=C[C@@H](c3coc4ccccc4c3=O)C[C@@H](OCCCCO)O2)CC1	19.3
Cc1ccc(NS(=O)(=O)c2ccc(-c3csc(C)n3)s2)c(C)c1	16.0
CNc1ccc(Br)cc(C(=O)/C=C/c2cc(OC)ccc2OC)c1=O	12.8
O=C1c2cccnc2C(Nc2ccc(Br)cc2Br)N1Cc1cccs1 (configuration not stated)	-0.1
COc1ccccc1N(CC(=O)NCC1CCCO1)C(=O)CNS(=O)(=O)c1ccccc1 (configuration not stated)	15.5
O=C(Nc1ccccc1)c1ccc(Br)o1	13.3
Cn1c(CSCc2ccccc2)n[nH]c1=S	7.5
CN(C)CCCC(C)(O)C(Cc1ccccc1)c1ccccc1 (configuration not stated)	6.3
Cc1ccccc1NC(=O)COC(=O)/C=C/c1cccc(C(F)(F)F)c1	6.0
O=C(NC1CCCC1)C(c1ccc(F)cc1)N(Cc1ccccc1Cl)C(=O)CCl (configuration not stated)	5.5
Cc1csc(NC(=O)C(F)(F)F)n1	12.7
COc1ccc(/C=N/NC(=O)CCCOc2ccc(Cl)cc2Cl)cc1	16.1
O=C(c1ccco1)N1CCN(c2ccc(F)cc2)CC1	5.0
O=[N+]([O-])c1ccc(N2CCN(c3ccc(O)cc3)CC2)c(Cl)c1	10.8
O=S(=O)(Nc1nc2ccccc2nc1-[n+]1cccc(N=C([O-])c2ccccc2Cl)c1)c1ccccc1	12.6
CCCCC12CN3CC(C)(CN(C1)C3c1ccc([N+](=O)[O-])o1)C2=O (configuration not stated)	14.3
Cc1ccc(C2=NC(=O)/C(=C/c3cc(O)c(O)c(Br)c3)S2)cc1	3.9
Cc1ccc(S(=O)(=O)NCc2c(-c3ccccc3)c3cc(Cl)ccc3[nH]c2=O)cc1	16.4
CC(C)CCN(C(=O)Nc1ccc(Cl)cc1)C1CCN(C(C)C)CC1	17.3
CC(C)(C)c1ccc(Oc2ccc(NC(=O)c3cccs3)cn2)cc1	20.8
Cc1ccc2nc(SCc3cn4c(C)cc(C)nc4n3)[nH]c2c1	20.4
O=C(CSc1ccc(-c2ccco2)nn1)NCc1ccc2c(c1)OCO2	10.5
COc1ccc(C(=O)NCc2nnc(SCC(=O)c3ccccc3)n2C)cc1	22.4
COc1ccc(NC(=O)COC(=O)[C@@H]2CCCN2S(=O)(=O)c2ccccc2F)c(OC)c1	11.6
Cc1ccc(S(=O)(=O)N2CCC(=O)N(C(CO)C(C)C)CC2)cc1 (configuration not stated)	15.1
COc1ccc(NC(=O)/C(C#N)=C\c2cc(C)n(-c3ccc4c(c3)OCO4)c2C)cc1	11.9
COc1cc(C(=O)N/N=C\c2ccccc2)c([N+](=O)[O-])c(OC)c1OC	14.2
N#C/C(=C/c1ccccc1[N+](=O)[O-])c1nc(C2CC2)cs1	11.9
CCOc1ccc(-c2nnc(SCC(=O)Nc3cc(C)on3)o2)cc1	16.7
CC(C)OC(=O)Nc1ccc2c(c1)N(C(=O)CCN1CCOCC1)c1ccccc1CC2	-3.7
COC(=O)c1c(C)nc(C)c(C(=O)OC)c1-c1ccc(OC)cc1	12.8
Cc1cc(SCC(=O)Nc2ccccc2)n2ncc(-c3ccccc3)c2n1	9.8
Cn1c(SCC(=O)NC2CCCC2)nnc1-c1ccncc1	10.3
Fc1ccc(COc2ccccc2C(=S)N2CCCC2)cc1	7.2
CC(C)Oc1ccc(Nc2ncnc3ccccc23)cc1	19.5
COc1ccc(C(=O)CCC(C)(C)[N+](=O)[O-])cc1	7.0
O=c1c2cc(NC(=S)NCCN3CCCCCC3)ccc2nc2n1CCCCC2	6.7
O=C(O)CSC1=NC(=Nc2ccc(Cl)cc2)C2(CCCCC2)N1c1cccc(C(=O)O)c1	11.3
Cc1ccc(CN2CCN(Cc3cccn3-c3ccccn3)CC2CCO)cc1 (configuration not stated)	18.4
